Bead autofluor – flagged as autofluorescent in microsphere protease counterscreen. fluorescence intensity (concentration not given with the values). 3.1% of 360,000 active. AID 624483. compound autofluorescence counterscreen, microsphere flow cytometry; hits give high values;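 active = at least 3 SD above the mean of all compounds, about 16000 in these data; inconclusive = too few beads counted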;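 also: 100 nL of 1 mM stock went into each well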
Mtb hypoxia inh – Mtb hypoxia fluorescent reporter inhibition. M. tuberculosis hypoxia-regulated fluorescent reporter, fluorescence. fluorescence inhibition, % (no concentration beside the values). 0.1% of 300,000 active;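 active = 35 to 45% if threefold the growth effect, above 45% if 1.5-fold the growth effect; inactive = the rest, general growth blockers included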;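 also: wells of about 50 µL received 100 nL stock; 0% = vehicle wells and 100% = reference inhibitor wells; whole bacteria with a GFP reporter of the hypoxia response; strong numbers were not always called active; many hits fall short of the cut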
Sa RN4220 lethal – kills Staphylococcus aureus RN4220; AID 1259311; 0.33% of 330,000 active; inhibition, % (test concentration not listed); S. aureus RN4220 growth, OD600, 16 h;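 active = z-score of -3 or lower and OD600 up to 0.18 on both plates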;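 also: plate controls were untreated cells for no effect and reference antibiotic for full effect; stock transfer was 100 nL into about 80 µL; one replicate is shown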
Sa ugtP lethal – kills S. aureus RN4220 lacking UgtP; S. aureus RN4220 ugtP deletion, OD600 growth, 16 h; some inactives read as strong as hits; growth inhibition, % (test concentration not listed); 0.54% of 330,000 active; AID 1259309;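 active = z-score under -3 and OD600 up to 0.15 on both plates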;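 also: plate controls were untreated wells for no effect and antibiotic for full effect; wells of about 80 µL received 100 nL stock; the first replicate is given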
BJeLR viability – kills HRASV12-expressing BJeLR cells | inhibition, % (concentration not given with the values) | BJeLR (HRASV12) viability, CellTiter-Glo ATP luminescence, 48 h; reference of the scale not given here | 0.17% of 300,000 active;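 active = replicate mean above 50%; inconclusive = above 50% but judged a plate artefact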;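 also: 50 nL library stock added to about 25 µL; numbers are from one replicate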
PrP 5UTR inh – inhibition of PrP 5' UTR reporter expression. cell-based PrP 5' UTR mRNA reporter, plate reader. inhibition, % (concentration not given with the values). 0.35% of 340,000 active. AID 488862;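 active = every replicate at 50% or more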;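 also: 0 = median of the neutral control wells; tested in H4 reporter cells; numbers are from one replicate; inactives centre near -14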
Mtb hypoxia inh growth – second read-out of Mtb hypoxia inh, no call of its own (marks repeat the call); growth inhibition, %; measured here: M. tuberculosis growth (absorbance);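 0% = vehicle and 100% = reference antibiotic; read after six days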
Numbers without * were called inactive; ? = inconclusive; nt = not tested or not shown; & = joins results of further samples. Random draw from the library (roughly 4% active in at least one column).

SMILES | Bead autofluor | Mtb hypoxia inh | Mtb hypoxia inh growth | Sa RN4220 lethal | Sa ugtP lethal | BJeLR viability | PrP 5UTR inh
CC1=C(C(=O)OCc2ccc3c(c2)OCO3)C(c2ccccc2)NC(=O)N1 (configuration not stated) | 7709 | 8 | -5 | 3.7 | -9 | -3 | 27
CC(=O)Nc1ccc(NC(=O)CSc2nc3ccccc3c(=O)n2CCCN2CCOCC2)cc1 | 3620 | 4 | 12 | 3.5 | 4 | nt | 10
N#CCCN(C(=O)COC(=O)c1cc2ccccc2oc1=O)c1ccccc1 | 3829 | 0 | -4 | 2.7 | 5 | nt | -15
Cn1cc([N+](=O)[O-])c(C(=O)N/N=C/c2ccccc2)n1 | 9571 | nt | nt | nt | nt | 1 | 16
O=C(O)c1ccc(OCC(O)Cn2c3ccccc3c3ccccc32)cc1 (configuration not stated) | 3473 | 15 | 4 | 7.7 | 3 | -8 | -35
Cn1c(N)c(C(=O)COC(=O)c2cc(S(=O)(=O)NCc3ccccc3)ccc2O)c(=O)n(C)c1=O | nt | 7 | 7 | 10 | -8 | nt | -4
O=C(CCn1c(=O)c2sccc2n(Cc2cc(=O)n3ccccc3n2)c1=O)NCc1ccco1 | 8202 | 2 | 2 | 4.8 | 11 | 9 | -61
C=CCNC(=S)NCC1COc2ccccc2O1 (configuration not stated) | 2685 | 2 | 2 | 2.9 | 5 | -12 | -5
O=C(CSc1ncccn1)N1CCC(Cc2ccccc2)CC1 | 4824 | 1 | 2 | 23 | 11 | -3 | -23
COC(CNc1ccc([N+](=O)[O-])c(NCC(OC)OC)c1C#N)OC | 3991 | 9 | 14 | 2.5 | 3 | -8 | -13
CCCOc1ccc(C(=O)NCC(C)(C)N2CCOCC2)cc1 | 4460 | 9 | 11 | 3.9 | 6 | 4 | -10
Cc1cc(C)c(C)c(OCCN2CCOCC2)c1 | 3740 | 10 | 6 | 1.3 | 3 | 0 | -10
O=C(NCCc1ccccc1)[C@@H]1CC=C[C@@H]2CCN(Cc3ccc(Cl)c(Cl)c3)C(=O)[C@@H]21 | 4399 | nt | nt | nt | nt | 0 | -30
CN1C(=O)CSC1=NC12CC3CC(CC(C3)C1)C2 | 10942 | 6 | 2 | 11 | 24 | 5 | -13
Cc1cc(C)nc(SCCC(=O)Nc2ccc(F)cc2)n1 | 3885 | -3 | 0 | 8.5 | 4 | 8 | -18

A different layout for two compounds above.
COC(CNc1ccc([N+](=O)[O-])c(NCC(OC)OC)c1C#N)OC
  Bead autofluor = 3991
  Mtb hypoxia inh = 9
  Mtb hypoxia inh growth = 14
  Sa RN4220 lethal = 2.5
  Sa ugtP lethal = 3
  BJeLR viability = -8
  PrP 5UTR inh = -13

CCCOc1ccc(C(=O)NCC(C)(C)N2CCOCC2)cc1
  Bead autofluor = 4460
  Mtb hypoxia inh = 9
  Mtb hypoxia inh growth = 11
  Sa RN4220 lethal = 3.9
  Sa ugtP lethal = 6
  BJeLR viability = 4
  PrP 5UTR inh = -10

The list continues.
SMILES | Bead autofluor | Mtb hypoxia inh | Mtb hypoxia inh growth | Sa RN4220 lethal | Sa ugtP lethal | BJeLR viability | PrP 5UTR inh
O=C(CCc1ccc(O)cc1)N1C[C@H]2C[C@@H](C1)c1cccc(=O)n1C2 | 5646 | nt | nt | 4.2 | 0 | -11 | -7
CCN1C[C@@H]2[C@@H]3C(=O)N(C)C(=O)[C@@H]3[C@](Cc3ccccc3)(C(=O)OC)N2C1=NC1CCCCC1 | 3267 | -3 | -7 | 2.7 | 8 | nt | -32
Cn1c(SC/C=C/c2ccccc2)nnc1-c1cnccn1 | 2305 | nt | nt | nt | nt | 3 | -36
Cc1ccc(CNC2CCCCC2)s1 | 3025 | 4 | 1 | 6.2 | 10 | -9 | -4
NC(=O)C1CCN(c2nc(-c3ccccc3)nc3c2oc2ccccc23)CC1 | 9575 | -12 | 0 | -4.4 | -12 | 2 | -23
COc1ccccc1-n1nnnc1SCC(=O)Nc1ccccn1 | 19311* | 2 | 6 | 4.2 | 12 | -7 | 5
CC(=O)Nc1ccc(Nc2ccc3nonc3c2[N+](=O)[O-])cc1 | 4228 | 2 | 8 | 8.6 | 1 | 46 | -16
COc1ccc(/C=C/C(=O)Oc2ccc(C=NNC(=O)c3ccccc3)cc2)cc1OC | nt | 4 | -1 | 2.4 | 1 | nt | nt
COc1ccc(N2CCN(C(=O)Cn3c(=O)[nH]c4ccccc4c3=O)CC2)cc1 | nt | 18 | 6 | 17 | 9 | -29 | nt
COc1cc2c(cc1OC)CN(C(=O)CCCN1C(=O)c3ccccc3C1=O)CC2 | 22299* | -3 | 9 | 2.8 | 0 | 3 | -1
COc1cc(OC)cc(C(=O)NCCSCc2ccc(Cl)cc2)c1 | 3991 | 8 | 2 | -2.3 | -1 | 0 | -6
O=C(Nc1cccc(-n2cnnn2)c1)c1cccc(Cl)c1 | 5888 | 18 | -1 | -1.2 | -4 | 4 | -14
CCC(=O)N1c2ccccc2[C@@H](N(C(C)=O)c2ccccc2)C[C@H]1C | 4110 | -10 | -1 | 0.9 | 1 | 5 | -13
COc1cccc(C(=O)NN2CCOCC2)c1 | 4565 | 1 | 5 | 2.1 | 1 | -4 | -9
CC(=O)Nc1ccc2c(CSc3nnc(-c4cccnc4)n3-c3ccc(C)cc3C)cc(=O)oc2c1 | 3274 | -6 | -4 | 3.1 | -4 | -2 | -7
CCCCOc1ccc(-c2ncc([N+](=O)[O-])cn2)cc1 | 5255 | -7 | 0 | 2.4 | 3 | 3 | -45
COCCNc1c(-c2ccc(O)cc2)nc2ccc(Cl)cn12 | 4564 | nt | nt | 0.3 | -1 | 2 | -33
COc1ccc(CCNC(=S)Nc2cccc(C)c2)cc1 | 4766 | nt | nt | 2.1 | 0 | 1 | 33
CCOC(=O)N1CCC(N2Cc3cccc(C(=O)Nc4ccc(OC)c(OC)c4)c3C2=O)CC1 | 4754 | -5 | 10 | -13 | -1 | -2 | -9
CCC(C)[C@H](NC(=O)N1CCCC1)C(=O)O (some centres not stated) | 9624 | 12 | 5 | 7.6 | -5 | -4 | -25
COc1ccc2cc(CCC(C)=O)ccc2c1 | 6165 | nt | nt | nt | nt | -13 | -50&-37
CNc1c(NS(=O)(=O)c2ccc(OC)c(Cl)c2)c(=O)oc2ccccc12 | 5709 | 3 | 8 | 20 | 4 | 3 | -7
CN1CCC(=O)N(C(CSc2ccccc2)c2ccccc2)CC1 (configuration not stated) | nt | -1 | -2 | 3.0 | -3 | nt | nt
C=CCn1c(=O)c(C(=O)NCCNCC)c(O)c2ccccc21 | 10874 | 7 | 10 | 2.3 | 6 | -3 | -2
CC1CN(c2ncc(C=NNC(=O)c3ccccc3O)s2)CC(C)O1 (configuration not stated) | nt | 5 | 6 | 3.6 | 2 | nt | nt
O=C(O)c1cc(S(=O)(=O)NC(Cc2c[nH]c3ccccc23)C(=O)O)ccc1Cl (configuration not stated) | 3999 | 5 | 2 | 2.2 | 4 | 6 | -27
Cc1nc(N)[nH]c(=O)c1CCC(=O)OCC(C)C | 23221* | 2 | 12 | 4.9 | 0 | -8 | -11
COc1ccccc1-[n+]1c(C)cc(/C=C2\Sc3ccccc3N2C)cc1C | 7146 | nt | nt | 100* | 100* | 73* | 70*
O=C(NCC(=O)N1CCN(c2ccccc2)CC1)c1cccs1 | 6413 | 4 | 7 | 1.6 | 1 | 2 | -20
COCCn1c(=NC(=O)CSCC(=O)Nc2cc(C)on2)sc2cc(C(=O)OC)ccc21 | 2641 | 3 | -10 | 1.5 | 13 | -2 | 1

Some entries already given, limited to Mtb hypoxia inh:
canonical_smiles	Mtb hypoxia inh
CCCCOc1ccc(-c2ncc([N+](=O)[O-])cn2)cc1	-7
Cc1nc(N)[nH]c(=O)c1CCC(=O)OCC(C)C	2

New compounds follow.
SMILES | Bead autofluor | Mtb hypoxia inh | Mtb hypoxia inh growth | Sa RN4220 lethal | Sa ugtP lethal | BJeLR viability | PrP 5UTR inh
COc1cc(NC(=O)c2ccc(OC)c([N+](=O)[O-])c2)ccc1NC(=O)c1ccco1 | 3067 | 9 | -2 | 2.2 | 0 | -11 | -5
COc1ccccc1N1CCN(C2CCCN(C(=O)Cn3cccn3)C2)CC1 (configuration not stated) | ? | 4 | 5 | -0.6 | 2 | -1 | -11
Nn1c(-c2ccc(O)cc2)nnc1-c1ccc(O)cc1 | 3255 | 12 | 15 | 3.8 | 6 | 3 | -4
O=C(NCC1CCN(S(=O)(=O)c2ccccc2)CC1)Nc1ccccc1 | 4663 | 5 | 3 | 2.9 | 12 | 7 | -15
COc1ccc(C(=O)NC(CC(C)C)C(=O)O)cc1 (configuration not stated) | 4064 | 9 | 0 | 5.7 | 0 | nt | -9
CC(=O)c1cccc(NC(=O)c2cc3ccccn3n2)c1 | 4988 | -1 | 6 | -4.3 | -9 | 3 | -39
COc1ccc(OC)c(C(O)C(C)N)c1 (configuration not stated) | 5931 | 1 | 4 | 6.3 | 1 | nt | -39&-11
O=C(Nc1ccc(Cl)cc1)[C@@H]1[C@@H]2C(=O)N(c3cccc(F)c3)C(=O)[C@@H]2[C@H]2C=CC=NN21 | 5870 | 16 | 5 | 2.4 | 2 | 1 | -1
O=C(CN1CCNC(=O)C1)NCCc1ccc(Cl)cc1Cl | 2495 | 8 | 8 | 1.6 | 7 | 9 | -19
O=C(Nc1ccc2c(c1)OCCO2)c1cnn(-c2ccccc2)n1 | 3832 | -3 | 2 | 4.7 | -8 | nt | -35
CCCN1Cc2cccc(C(N)=O)c2C1=O | 2509 | nt | nt | 3.3 | 7 | 4 | -2
O=C(NCc1ccccn1)c1cn(CCc2ccccc2)nn1 | 4106 | nt | nt | 2.6 | 5 | 1 | -16
COc1ccccc1C(=O)NNC(=O)c1cccc(Cl)c1 | 2423 | 2 | 5 | 4.8 | 1 | 4 | -52
CSc1nc2sc3c(c2c(=O)[nH]1)CCc1ccccc1-3 | 1926 | 3 | 8 | 2.7 | -26 | -9 | -11
O=C(/C=C/c1cn(CC(O)CN2CCCCC2)c2ccccc12)c1ccccc1 (configuration not stated) | 4798 | 33* | 53* | 1.9 | 1 | 16 | -13
S=c1[nH]nc(-c2ccco2)n1/N=C/c1ccc(Cl)cc1Cl | 9383 | nt | nt | nt | nt | 0 | -26

Rewritten as labelled records: entries from further up
O=C(O)c1ccc(OCC(O)Cn2c3ccccc3c3ccccc32)cc1 (configuration not stated)
  Bead autofluor: 3473
  Mtb hypoxia inh: 15
  Mtb hypoxia inh growth: 4
  Sa RN4220 lethal: 7.7
  Sa ugtP lethal: 3
  BJeLR viability: -8
  PrP 5UTR inh: -35
Cn1c(N)c(C(=O)COC(=O)c2cc(S(=O)(=O)NCc3ccccc3)ccc2O)c(=O)n(C)c1=O
  Bead autofluor: nt
  Mtb hypoxia inh: 7
  Mtb hypoxia inh growth: 7
  Sa RN4220 lethal: 10
  Sa ugtP lethal: -8
  BJeLR viability: nt
  PrP 5UTR inh: -4
O=C(CCn1c(=O)c2sccc2n(Cc2cc(=O)n3ccccc3n2)c1=O)NCc1ccco1
  Bead autofluor: 8202
  Mtb hypoxia inh: 2
  Mtb hypoxia inh growth: 2
  Sa RN4220 lethal: 4.8
  Sa ugtP lethal: 11
  BJeLR viability: 9
  PrP 5UTR inh: -61
C=CCNC(=S)NCC1COc2ccccc2O1 (configuration not stated)
  Bead autofluor: 2685
  Mtb hypoxia inh: 2
  Mtb hypoxia inh growth: 2
  Sa RN4220 lethal: 2.9
  Sa ugtP lethal: 5
  BJeLR viability: -12
  PrP 5UTR inh: -5
